Assay outcomes deposited in PubChem BioAssay by National Center for Advancing Translational Sciences (NCATS).
StopGo RLuc = Primary qHTS Assay for Foot and Mouth Disease Virus Antivirals against NCGC Sytravon and CBC Compound Libraries: Renilla Luciferase Signal; HEK cells with a luciferase reporter of 2A StopGo recoding; Potency, µM (doses to about 57.5 µM), without a hit: at the highest dose signal change, negative = less light; 120,000 tested, 0.32% active; active means well fitted falling curve with a large enough effect; inconclusive means small, poorly fitted or top-dose-only effect; inactive means no such curve, though single readings can be large or run the other way; further: nearly all actives have a fitted effect of over 55% in size; overnight with compound
StopGo FLuc = Primary qHTS Assay for Foot and Mouth Disease Virus Antivirals against NCGC Sytravon and CBC Compound Libraries: Firefly Luciferase Signal | 120,000 tested, 0.23% active | Potency, µM (doses to about 57.5 µM), inactives show at the top dose signal change, negative = less light | HEK cells with a luciferase reporter of 2A StopGo recoding | AID 1745856, 2022; active = well fitted falling curve with a large enough effect; inconclusive = small, poorly fitted or top-dose-only effect; inactive = no such curve, though single readings can be large or run the other way; further: nearly all actives have a fitted effect of over 60% in size; overnight with compound
An asterisk follows results filed as active; ? = inconclusive; & = joins results of further samples; [ ] = another dose, or the depositor's remark. On the % scale 0 is the no-effect control and ±100 the full control effect; potency means the concentration at half of the fitted maximal effect. Some of the compounds tested. The share of hits here may be higher or lower than overall.

CCc1ccc(NC(=O)Cn2c(=O)n(CCC(=O)NCCc3ccc(Cl)cc3)c(=O)c3ccccc32)cc1
- StopGo RLuc: -11%
- StopGo FLuc: -21%

C(#C[Si](C#CCN1CCCCC1)(c1ccccc1)C1CCCCC1)CN1CCCCC1
- StopGo RLuc: 13%
- StopGo FLuc: 0%

COc1ccc(S(=O)(=O)Nc2c(NC3CCCC3)c3ccccc3oc2=O)cc1OC
- StopGo RLuc: 60%[activator]
- StopGo FLuc: 34%[activator]

CCOc1cc(/C=C(\C#N)c2nc3ccccc3[nH]2)ccc1OCc1ccccc1
- StopGo RLuc: -19%
- StopGo FLuc: -1%

O=[N+]([O-])c1cc(S(=O)(=O)Nc2ccc(Cl)cc2)ccc1N/N=C/c1ccsc1
- StopGo RLuc: 67%[activator][1.06 µM]
- StopGo FLuc: -7%

c1ccc2c(SCc3cn4ccccc4n3)ncnc2c1
- StopGo RLuc: -5%
- StopGo FLuc: 0%

C=CCc1c(C)[nH]c2c(C)cccc2c1=S
- StopGo RLuc: -11%
- StopGo FLuc: 4%

O=C1C2CCCC1C(c1ccccc1)NC2c1ccccc1 (stereo not given)
- StopGo RLuc: 2%
- StopGo FLuc: 17%

COCCn1ccc2nc(C)c(C(=O)N3CCN(c4cc(C)ccc4C)CC3)cc2c1=O
- StopGo RLuc: -4%
- StopGo FLuc: -12%

COc1cccc(-c2nc(SCc3cc(=O)c4ccc(C)c(C)c4[nH]3)n[nH]2)c1
- StopGo RLuc: 10%
- StopGo FLuc: -5%

COC(=O)[C@H]1[C@H]2C[C@@H]3c4[nH]c5cc(OC)ccc5c4CCN3C[C@H]2C[C@@H](OC(=O)COc2ccc(OC)cc2)[C@@H]1OC
- StopGo RLuc: -2%
- StopGo FLuc: -12%[11.5 µM]

COc1ccc(C(=O)N2CCN(Cc3cc(=O)n4nc(-c5ccccc5C)sc4n3)CC2)cc1OC
- StopGo RLuc: 12%
- StopGo FLuc: 40%[activator]

CCOc1ccc(/C=C/c2nc(C#N)c(NCCCOC)o2)cc1
- StopGo RLuc: 34%[activator]
- StopGo FLuc: 39%[activator]

Cc1ccc(-c2cc(C(F)(F)F)n3nc(C(=O)Nc4ccc(C#N)cc4)cc3n2)cc1
- StopGo RLuc: -8%
- StopGo FLuc: -12%

COC(=O)Cn1ccc2cc(S(=O)(=O)N3CCCCC3)ccc21
- StopGo RLuc: 8%
- StopGo FLuc: -5%

COc1cccc(CNS(=O)(=O)c2ccc(N3CCCCS3(=O)=O)cc2)c1
- StopGo RLuc: -12%
- StopGo FLuc: ?

Cc1ccc(CN(C(=O)COc2ccc(C)c(C)c2)C2CCS(=O)(=O)C2)o1 (stereo not given)
- StopGo RLuc: -3%
- StopGo FLuc: 17%

O=C(NC1CCCCNC1=O)c1cc(Cl)c2c(c1)OCCCO2 (stereo not given)
- StopGo RLuc: -4%
- StopGo FLuc: 91%[activator]

CCc1nn(Cc2cccc(F)c2)c(=O)c2cc3cc(C)ccc3n12
- StopGo RLuc: -5%
- StopGo FLuc: -10%

Cc1cc(C)c(C(=O)Cn2nc(C(=O)O)c3ccccc3c2=O)c(C)c1
- StopGo RLuc: -6%
- StopGo FLuc: 2%

FC(F)(F)c1cccc(NC2(c3nnnn3-c3ccccc3)CCCC2)c1
- StopGo RLuc: 67%[activator]
- StopGo FLuc: -3%

CCCCn1c(C)c(C(=O)OCC)c2cc(OC)ccc21
- StopGo RLuc: -7%
- StopGo FLuc: 4%

COc1ccc(C2CC(=O)c3c([nH]c(C(=O)OCc4ccccc4)c3C)C2)cc1 (stereo not given)
- StopGo RLuc: -6%
- StopGo FLuc: -24%

COc1ccccc1CN1CCC(N2CCN(c3ccccc3OC)CC2)CC1
- StopGo RLuc: -4%
- StopGo FLuc: -6%

O=C(Cn1c(SCc2cccc(F)c2)nc2cccnc21)Nc1ccc(F)c(Cl)c1
- StopGo RLuc: -25%
- StopGo FLuc: -19%

The final four compounds of the section before are carried over, then new ones follow:
CCCCn1c(C)c(C(=O)OCC)c2cc(OC)ccc21
- StopGo RLuc: -7%
- StopGo FLuc: 4%

COc1ccc(C2CC(=O)c3c([nH]c(C(=O)OCc4ccccc4)c3C)C2)cc1 (stereo not given)
- StopGo RLuc: -6%
- StopGo FLuc: -24%

COc1ccccc1CN1CCC(N2CCN(c3ccccc3OC)CC2)CC1
- StopGo RLuc: -4%
- StopGo FLuc: -6%

O=C(Cn1c(SCc2cccc(F)c2)nc2cccnc21)Nc1ccc(F)c(Cl)c1
- StopGo RLuc: -25%
- StopGo FLuc: -19%

CCC(=O)Nc1ccc(CC)cc1-c1nc2ccccc2n(CC(=O)Nc2cccc(Cl)c2)c1=O
- StopGo RLuc: 0%
- StopGo FLuc: -23%

Cc1ccccc1OCC(=O)Nc1nnc(S(=O)(=O)N2CCCCCC2)s1
- StopGo RLuc: -7%
- StopGo FLuc: -10%

O=S(=O)(c1ccccc1F)N1CCN(Cc2ncc(-c3ccc(F)cc3)o2)CC1
- StopGo RLuc: -11%
- StopGo FLuc: 16%

COc1cc(NC(=O)Cn2cnc3sc(C)c(S(=O)(=O)N4CCN(C)CC4)c3c2=O)cc(OC)c1OC
- StopGo RLuc: 0%
- StopGo FLuc: -10%

COC(=O)c1cc(NC(=O)c2nn(C)c3c2COc2ccccc2-3)cc(C(=O)OC)c1
- StopGo RLuc: ?
- StopGo FLuc: -22%

CCc1ccc(-c2nc3cc(NC(=O)c4cc5ccccc5cc4OC)ccc3o2)cc1
- StopGo RLuc: 4%
- StopGo FLuc: 26%

COC(=O)c1ccc(CNC(=O)COC(=O)Cc2ccc(Cl)cc2)cc1
- StopGo RLuc: -10%
- StopGo FLuc: 0%

O=C(NC(Cc1ccccc1)c1ccccc1)C1CCCO1 (stereo not given)
- StopGo RLuc: -10%[1.06 µM]
- StopGo FLuc: -16%

CCc1ccccc1N1C(=O)N(Cc2ccc(C#N)cc2)c2ccccc2S1(=O)=O
- StopGo RLuc: 2%
- StopGo FLuc: -4%

CCc1cnc2c(c1SCc1ccccc1C)c(=O)n(C)c(=O)n2C
- StopGo RLuc: -4%
- StopGo FLuc: -8%

Cc1ccc(NCc2cc3ccccc3[nH]c2=O)cc1C
- StopGo RLuc: 20%
- StopGo FLuc: 59%[activator]

CCCOC(=O)CCCCCCCCC(O)CN1CCCCC1 (stereo not given)
- StopGo RLuc: 40%
- StopGo FLuc: 16%

O=c1oc2ccccc2c(NC2CCCC2)c1NS(=O)(=O)c1ccccc1Cl
- StopGo RLuc: 25%
- StopGo FLuc: 6%

O=C(Nc1sc2c(c1C(=O)O)CCC2)c1ccco1
- StopGo RLuc: -7%
- StopGo FLuc: 164%[activator]

CCOC(CNC(=O)c1ccc2c(c1)ncn2-c1ccc(OCc2ccccc2)cc1)OCC
- StopGo RLuc: 2%
- StopGo FLuc: -4%

Cc1cc(C(=O)NC(C)c2cccc(Cl)c2)c2cnn(C(C)C)c2n1 (stereo not given)
- StopGo RLuc: 10%
- StopGo FLuc: 3%

Cc1nc(N2CCCCC2)ncc1-c1cc(=O)[nH]c(N2CCc3ccccc3C2)n1
- StopGo RLuc: 3%
- StopGo FLuc: -7%

COc1ccccc1CCNC(=O)CCCNc1nc(Cl)nc2nc[nH]c12
- StopGo RLuc: 17%
- StopGo FLuc: 11%

O=C(C1=Cc2sc3c(c2CS1)CCCC3)N1CCCCC1
- StopGo RLuc: 29%
- StopGo FLuc: 34%[activator]

CCCc1cc(=O)oc2cc(OC(C)C(=O)NCc3cccnc3)c(Cl)cc12 (stereo not given)
- StopGo RLuc: 8%
- StopGo FLuc: 13%

Oc1ccc2ccccc2c1C=Nc1ccc(F)c(F)c1F
- StopGo RLuc: -13%
- StopGo FLuc: -16%

COc1ccc(C(=O)Oc2ccc3c(=O)c(Oc4cccc(C)c4)coc3c2)cc1OC
- StopGo RLuc: 13%
- StopGo FLuc: 22%

Cc1n[nH]c(C)c1S(=O)(=O)Nc1ncn(Cc2ccc(F)cc2)n1
- StopGo RLuc: -10%
- StopGo FLuc: -5%

COc1ccc(CNC(=O)c2ccc3c(c2)N(Cc2c(F)cccc2Cl)C(=O)CS3)cc1
- StopGo RLuc: 0%
- StopGo FLuc: -4%

CCCCN(CC)CCCNC(=O)c1sc2nc3n(c(=O)c2c1C)CCCCC3
- StopGo RLuc: -10%
- StopGo FLuc: -10%

Seven of the compounds above, with values under each structure:
Results follow in this order: StopGo RLuc	StopGo FLuc
> FC(F)(F)c1cccc(NC2(c3nnnn3-c3ccccc3)CCCC2)c1
 : 67%[activator]	-3%
> CCCCn1c(C)c(C(=O)OCC)c2cc(OC)ccc21
 : -7%	4%
> COc1ccc(C2CC(=O)c3c([nH]c(C(=O)OCc4ccccc4)c3C)C2)cc1 (stereo not given)
 : -6%	-24%
> COc1ccccc1CN1CCC(N2CCN(c3ccccc3OC)CC2)CC1
 : -4%	-6%
> O=C(Cn1c(SCc2cccc(F)c2)nc2cccnc21)Nc1ccc(F)c(Cl)c1
 : -25%	-19%
> CCC(=O)Nc1ccc(CC)cc1-c1nc2ccccc2n(CC(=O)Nc2cccc(Cl)c2)c1=O
 : 0%	-23%
> Cc1ccccc1OCC(=O)Nc1nnc(S(=O)(=O)N2CCCCCC2)s1
 : -7%	-10%

Next part.
O=C(COc1ccccc1Cl)OCc1cc(=O)n2nc(C3CC3)sc2n1
- StopGo RLuc: 5%
- StopGo FLuc: -7%

CCOc1ccccc1C1C(C(=O)Nc2ccccc2OC)=C(C)Nc2nc3ccccc3n21 (stereo not given)
- StopGo RLuc: -15%&-21%
- StopGo FLuc: -9%&-18%

Cc1ccc(-c2nnc(Nc3ccc(O)cc3)c3ccccc23)cc1S(=O)(=O)N1CCOCC1
- StopGo RLuc: -8%
- StopGo FLuc: -21%

CC(C)=CC1C(C(=O)NNC(=O)C2CC2)C1(C)C (stereo not given)
- StopGo RLuc: 70%
- StopGo FLuc: 56%

CCCOc1cc(C)c(Cl)cc1S(=O)(=O)N1CCCCC1
- StopGo RLuc: 21%
- StopGo FLuc: 218%[activator]

CC1=C(C(=O)Nc2ccccc2C)C(c2cccnc2)n2nc(SCc3ccccc3F)nc2N1 (stereo not given)
- StopGo RLuc: -11%
- StopGo FLuc: -7%

Cc1nnc(NC(=O)c2csc(NC(C)C)n2)s1
- StopGo RLuc: 35%[activator]
- StopGo FLuc: 225%[activator]

COc1ccccc1-c1cc2nc(C)c(CCC(=O)Nc3ccc(Br)c(C)c3)c(C)n2n1
- StopGo RLuc: -8%
- StopGo FLuc: ?

Cc1ccc(-c2ccc(C(=O)O)cc2)cc1
- StopGo RLuc: 0%
- StopGo FLuc: 6%

CCc1ccc(-c2[nH]nc3nc(-c4cc(OC)ccc4OC)cc(C(=O)O)c23)cc1
- StopGo RLuc: 2%
- StopGo FLuc: -2%

COC(=O)c1cccc(Nc2cc(-c3ccccc3)ncn2)c1
- StopGo RLuc: 13%
- StopGo FLuc: 109%[activator]

CCCCCCNC(=O)n1cc(F)c(=O)[nH]c1=O
- StopGo RLuc: 3%
- StopGo FLuc: 14%[11.5 µM]

CCCC(=O)Nc1oc2c(C)cccc2c(=O)c1-c1ccc(OC)c(OC)c1
- StopGo RLuc: -11%
- StopGo FLuc: -3%

Cc1cc(=O)oc2cc(Oc3ccc(S(=O)(=O)NC(C)C)cc3[N+](=O)[O-])ccc12
- StopGo RLuc: 44%[activator]
- StopGo FLuc: -20%
